# High-throughput results (PubChem)
# Vaccinia Venus: inhibitors of vaccinia virus (Venus reporter); Vaccinia virus Venus reporter expression, fluorescence; Potency, µM (doses to about 36.5 µM), without a hit: top-dose activity change, negative = inhibition, usual class: inhibitors; 330,000 tested, 0.46% active; active means well fitted inhibition curve with a large enough effect; inconclusive means small, poorly fitted or top-dose-only effect; inactive means no such curve, though single readings can be large or run the other way; tested in A549 cells; further: nearly all actives have a fitted effect of over 30% in size; inactives centre near -10
# VACV mCherry inh: vaccinia inhibition (mCherry reporter); Vaccinia virus mCherry reporter infection, fluorescence; about a quarter of the inactives have no number; Potency, µM (doses to about 36.5 µM), inactives show at the highest dose activity change, negative = inhibition, most hits filed as inhibitors; 310,000 tested, 0.63% active; AID 720579; active = well fitted inhibition curve with a large enough effect; inconclusive = small, poorly fitted or top-dose-only effect; inactive = no such curve, though single readings can be large or run the other way; tested in A549 cells; further: nearly all actives have a fitted effect of over 35% in size; inactives centre near -10
# Numbers without * were called inactive; i = inactive; ? = inconclusive; . = no result given; [ ] = another dose, or the depositor's remark. On the % scale 0 is the no-effect control and ±100 the full control effect; potency means the concentration at half of the fitted maximal effect.
smiles | VACV mCherry inh | Vaccinia Venus
Cc1ccc(S(=O)(=O)c2c(N)n(C)c3nc4ccccc4nc23)cc1 | . | ?
C=C[C@](C)(O)CCC1C(=C)CC(OC(C)=O)C2C(C)(C)CCCC12C (stereo not given in full) | -13.0% | -4.6%
CCOc1ccc(NC(=O)COC(=O)c2ccc3ncsc3c2)cc1OCC | -9.1% | -3.9%
CCc1ccc(C(C)NC(=O)Cc2ccc(F)cc2)cc1 (stereo not given) | i | -9.5%
O=C(CN1CCc2ccccc2C1)Nc1ccc(OC(F)(F)F)cc1 | -13.3% | -9.1%
Cc1cc(C(=O)NNC(=S)NCC2CCCO2)cs1 (stereo not given) | -13.6% | -7.4%
CCCC(C)c1nnc(NC(=O)C2CCCO2)s1 (stereo not given) | -1.7% | 9.0%
O=S(=O)(NCCc1ccccc1)c1cnc(Cl)c(Br)c1 | ? | ?
COc1ccc(/C=C/CN2CCN(CC(C)C)C(CCO)C2)cc1 (stereo not given) | -12.7% | -22.9%
O=S(=O)(c1ccc(Cl)cc1)N1CCN(CCc2ccncc2)CC1 | -17.6% | -6.0%
O=C(O)CCCC(=O)N1N=C(c2ccccc2)CC1c1cccs1 (stereo not given) | i | -9.2%
CC(CCc1ccccc1)NC(=O)Cn1cccc1C(=O)c1ccccc1 (stereo not given) | -3.3% | -7.9%
COc1ccc(Cl)cc1NC(=O)COC(=O)CCCC1=NS(=O)(=O)c2ccccc2N1 | i | 1.5%
Cc1cc([N+](=O)[O-])nn1CC(=O)NCCCN1CCOCC1 | i | 0.7%
COCC(=O)NCCSc1c(C)[nH]c2ccccc12 | -19.3% | -12.1%
CCC(=O)Nc1cc(-c2nn(C)c(=O)c3ccccc23)ccc1N1CCCCC1 | -7.4% | 2.5%
Cn1c(N)c(C(=O)c2ccc(C#N)cc2)c(=O)n(C)c1=O | i | 3.8%
O=C(Cn1c(-c2cccs2)cc2cc(Cl)ccc21)N1CCN(c2ccccc2)CC1 | -7.3% | -4.4%
Cc1cc(C)c(C(O)c2ncc(-c3cccc(F)c3)[nH]2)c(C)c1 (stereo not given) | i | 0.8%
Cc1oc(-c2ccccc2)nc1CSc1nnc(C)n2c1cc1sccc12 | i | -17.0%
CC(=O)Nc1ccc(S(=O)(=O)NCC(=O)OCC(=O)c2cc(C)n(-c3ccc4c(c3)OCO4)c2C)cc1 | -8.6% | -3.9%
Cc1cccc(/C=C2\Oc3cc(OS(C)(=O)=O)ccc3C2=O)c1 | -21.5% | -14.8%
Cc1c(NC(=O)CSc2ccccc2C(=O)Nc2cccnc2)c(=O)n(-c2ccccc2)n1C | -15.6% | -2.4%
Cc1nn(-c2ccc(N3CCOCC3)nn2)c(C)c1CCC(=O)NCc1ccc(OC(C)C)cc1 | ? | ?

# Single records (already shown). Screens in order: VACV mCherry inh, Vaccinia Venus
# Entry for `CC(=O)Nc1ccc(S(=O)(=O)NCC(=O)OCC(=O)c2cc(C)n(-c3ccc4c(c3)OCO4)c2C)cc1` → -8.6%, -3.9%
# Entry for `Cc1cc(C)c(C(O)c2ncc(-c3cccc(F)c3)[nH]2)c(C)c1` (stereo not given) → i, 0.8%
# Entry for `O=C(Cn1c(-c2cccs2)cc2cc(Cl)ccc21)N1CCN(c2ccccc2)CC1` → -7.3%, -4.4%
# Entry for `Cc1cccc(/C=C2\Oc3cc(OS(C)(=O)=O)ccc3C2=O)c1` → -21.5%, -14.8%

# (list continues)
smiles | VACV mCherry inh | Vaccinia Venus
O=C(NCCc1cn2ccccc2n1)c1cc(COc2c(F)cccc2F)on1 | -21.2% | -15.6%
O=C(NCC(c1ccco1)N1CCc2ccccc21)C(=O)Nc1ccc(F)cc1F (stereo not given) | -11.4% | ?
CC(C)(C)c1ccc(/C=C/C(=O)Nc2ccc(S(N)(=O)=O)cc2)cc1 | -22.6% | ?
CC(C)CC(=O)NC(=S)NNC(=O)c1ccc(NC(=O)C2CCCCC2)cc1 | ? | -18.5%
COc1ccc(NC(=O)Cn2nnc(C(=O)NCCc3ccccc3)c2N)cc1 | -9.4% | 6.7%
Fc1ccc2cc(-c3ccccc3)ncc2c1 | i | -16.1%
CC1CCC2(CC1)NC(=O)N(CC(=O)NCc1cccs1)C2=O (stereo not given) | i | -12.3%
COc1ccccc1OCC(O)CN1CCOCC1 (stereo not given) | i | -6.7%
CCOC(=O)C1=C(C)NC(C)=C(C(=O)OCC)C1c1cc2ccc(C)cc2[nH]c1=O | -27.1% | ?
CCc1ccc(/C=C/C(=O)c2ccc(N3CCOCC3)cc2)cc1 | ? | -16.9%
CCN1CCN(CC(=O)Nc2cc3c(cc2C(C)=O)OCO3)CC1 | -5.9% | -3.7%
CN1CCN(C(c2cccc(C(F)(F)F)c2)c2nnnn2Cc2ccccc2)CC1 (stereo not given) | -9.8% | -22.3%
CCCCCCOC(=O)c1ccccc1N | i | -3.0%
COc1ccc(CNC2CCCC2)c(OC)c1OC | -7.1% | -4.3%
CCCCCCn1nc(C(=O)N(CCCC)c2c(N)n(CCC)c(=O)[nH]c2=O)c2ccccc2c1=O | i | -3.3%
COc1ccc(CNC(=O)N2CCN(S(=O)(=O)c3ccccc3)CC2)cc1 | ? | -18.9%
CCC(=O)NC(=S)NNC(=O)c1ccc(OC)cc1 | -24.7% | -3.4%
CC(=O)Nc1cccc(C(=O)Nc2cccnc2)c1 | -3.9% | 1.2%
COc1ccccc1NC(=O)N1c2ccccc2Sc2ccccc21 | -18.7% | -20.6%
O=c1oc2ccc(Br)cc2cc1-c1nc2c(s1)CCc1ccccc1-2 | -19.7% | 17.7%
CN1CCC(=C2c3ccccc3C(O)c3ccccc32)CC1 (stereo not given) | -1.3% | -17.5%
Cc1nnc(SCC(=O)c2ccc(Cl)cc2)n(N)c1=O | i | 3.3%
CC1CC(C)CN(CC(O)COCCOc2ccc(Br)cc2)C1 (stereo not given) | -14.8% | -14.8%
CC(=O)NC1=NC(=O)/C(=C/N2CCCCC2)S1 | -0.6% | -15.0%
Cc1nn(Cc2ccc(F)cc2)c(C)c1NC(=O)c1noc2c1CCCCC2 | -28.0% | -28.4%
Cc1c([C@H]2[C@@H](CC#N)C2(C)C)c2ccccc2n1C | . | 4.2%
CCOC(=O)CSc1nc2ccc(C)cc2n2cnnc12 | -17.7% | -18.0%
Cc1cccc(NC(=O)Cn2c(=O)n(Cc3nc(-c4ccccc4)no3)c(=O)c3ccccc32)c1 | -26.9% | -17.6%
O=C(c1ccccc1)N1CCC(c2nc(-c3ccc(S(=O)(=O)NCC4CCCO4)cc3)no2)CC1 (stereo not given) | ? | ?
COc1ccc2cc(C(C)C(=O)OC(C)C)ccc2c1 (stereo not given) | i | -10.4%
Clc1ccc(CNc2ccc(N3CCN(Cc4ccccc4)CC3)cc2)cc1 | -1.5% | -15.8%
COCCn1c(CCC(=O)Nc2ccc(C)c(Cl)c2)nc2cccnc21 | -18.6% | -7.5%
CCOc1cc(CNCCCN2CCOCC2)ccc1OCC(=O)NC(C)(C)C | i | -14.2%
Cc1cccc(C(=O)OC(C)C(=O)N2CCN(Cc3ccccc3)CC2)c1 (stereo not given) | -14.3% | -13.8%
COc1ccccc1CNC(=O)C1CCC(CNS(=O)(=O)c2ccc(F)cc2)CC1 (stereo not given) | -10.2% | -17.8%
COc1ccc(-n2c(/C=C\c3ccccc3F)nc3ccccc3c2=O)c(OC)c1 | -29.0% | -24.6%
COc1ccc(-n2nc(C(=O)NCC(=O)NCCCN3CC(C)CC(C)C3)c3ccccc3c2=O)cc1Cl (stereo not given) | -9.5% | -3.5%
N/C(=N\OC(=O)c1cccs1)c1cccc(Br)c1 | -2.3% | 7.6%
CCCCCn1c(CCCNC(=O)c2ccc(Cl)cc2)nc2ccccc21 | -13.7% | -15.1%
CC(=O)c1ccc(N2CCN(C(=O)Cc3cccs3)CC2)cc1 | -8.0% | -13.3%
Cc1cc(C)c(C)c(S(=O)(=O)Nc2ccccc2C(=O)NCCCn2ccnc2)c1C | . | -23.9%
COCCNC(=O)C(=O)NCC(c1cccnc1)N1CCN(c2ccccc2F)CC1 (stereo not given) | -13.3% | -13.6%
CC(=O)Nc1cccc(NC(=O)Nc2cccc(F)c2)c1 | i | -6.2%
COC(=O)c1cc2occc2n1Cc1nc(-c2ccccc2F)oc1C | -27.4% | -16.7%
O=C(/C=C/c1ccc2c(c1)OCO2)NCCSCc1ccc(Cl)cc1 | . | -19.0%
COc1ccc(C2CC(c3ccccc3C(F)(F)F)=NN2c2ccc(S(N)(=O)=O)cc2)cc1 (stereo not given) | -16.2% | ?
Cc1cccc(Oc2c([N+](=O)[O-])c(=O)n(C)c3ccccc23)c1 | -13.2% | -0.9%
CCOC(=O)C(Cc1ccc(O)cc1)NC(C)=O (stereo not given) | i | -10.7%
CCN1CCN(S(=O)(=O)c2cccc(S(=O)(=O)N3CCOCC3)c2)CC1 | i | -1.4%
COCCN1C(=O)C(=O)/C(=C(/O)c2ccc(S(=O)(=O)N3CCOCC3)cc2)C1c1ccc(O)c(OC)c1 (stereo not given) | -12.9%[7.34 µM] | -10.9%[7.34 µM]
CC(C)c1ccc(CNc2nc3nc4c(c(=O)n3[nH]2)CCC4)cc1 | i | -4.7%
COc1ccccc1CC(NC(C)=O)C(=O)NC1CCN(C(=O)Nc2ccccc2F)CC1 (stereo not given) | 16.5% | 5.3%
O=[N+]([O-])c1ccc(COc2cccc(CNc3ccc(F)cc3)c2)cc1 | i | -4.2%
CC(=O)N(C)C(c1ccc(N(C)C)cc1)c1nnnn1-c1c(C)cccc1C (stereo not given) | i | -15.8%
CCOC(=O)C(NCc1ccc2c(c1)OCO2)(NC(=O)CC)C(F)(F)F (stereo not given) | -12.8% | -3.0%
CCOC(=O)C1=CCC(c2ccccc2)N(S(=O)(=O)c2ccccc2C)C1 (stereo not given) | i | -5.9%
COc1ccc(C2C(C(=O)Nc3ccc(F)cc3)=C(C)Nc3nc(CCCO)nn32)cc1 (stereo not given) | -2.6% | -2.0%
Clc1cccc(CNc2ccn3nc(-c4cccc(Cl)c4)cc3n2)c1 | -5.0% | -3.6%
Cc1ccc(NC(=O)c2nc(SCc3ccccc3F)ncc2Cl)cc1 | -14.0% | 10.5%
CCCn1c(=NC(=O)c2c(-c3c(F)cccc3Cl)noc2C)c(C(=O)OCC)cc2c(=O)n3ccccc3nc21 | -4.7% | -3.1%

# Later entries:
smiles | VACV mCherry inh | Vaccinia Venus
Cc1cccc(C(=O)NCC(=O)OCC(=O)NC2CCCCCCC2)c1 | -9.4% | -6.8%
O=C(CCn1cnc2ccccc2c1=O)Nc1nc(-c2ccc(Br)cc2)cs1 | -24.9% | ?
Cc1nc2ccccc2c(=O)n1NC(=O)c1ccc(F)cc1Cl | i | -0.3%
COCOc1cccc(CN2CCC(C)(Oc3ccc(C(C)=O)cc3)C2)c1 (stereo not given) | i | -4.2%
CCOc1ccc(/C=C2\CCc3ccccc3C2=O)cc1 | i | -21.2%
CCc1ccc(NC(=O)CSc2nncn2-c2cccnc2)cc1 | -2.8% | 1.0%
CC[C@H]1OC(=O)[C@H](C)[C@@H](O[C@H]2C[C@@](C)(OC)[C@@H](O)[C@H](C)O2)[C@H](C)[C@@H](O[C@@H]2O[C@H](C)C[C@H](N(C)C)[C@H]2O)[C@](C)(O)C[C@@H](C)C(=NOCOCCOC)[C@H](C)[C@@H](O)[C@]1(C)O | -23.1% | -12.1%
CCCCSc1c(C)c2cc3c(cc2[nH]c1=O)OCO3 | -8.0% | -1.6%
O=C(O)c1cc2c([nH]c1=O)CCCC2 | -6.9% | -9.7%
N#Cc1cc2cc3c(cc2nc1SCC(=O)N1CCOCC1)OCO3 | i | -0.5%
COc1ccccc1C(=O)NC1CCCc2ccccc21 (stereo not given) | -12.6% | -7.3%
CCN(CC)S(=O)(=O)c1cccc(C(=O)N[C@H](C(=O)O)C(C)C)c1 | -6.7% | -2.4%
COc1ccc(N2C(=O)CSC23C(=O)N(CC(=O)NC2CCCCC2)c2ccccc23)cc1 (stereo not given) | i | -7.5%
Oc1cccc(C2c3[nH]c4ccccc4c3CCN2Cc2cnn(-c3ccccc3)c2)c1 (stereo not given) | -1.7% | -14.1%
Cc1ccccc1OCC(=O)N1N=C(C(F)(F)F)CC1(O)C(C)(C)C (stereo not given) | -24.3% | -26.9%
COc1cccc(CNC(=O)CCl)c1 | -27.3% | -13.0%
COc1ccc(C(C(=O)Nc2ccc3c(c2)OCCO3)n2c(=O)c(-c3ccco3)nc3ccccc32)cc1 (stereo not given) | -22.4% | -25.4%
CCc1nc2ccc(C(=O)N3CCCC(C(N)=O)C3)cn2c1N(C=O)CC (stereo not given) | 50.4%[activator] | 1.0%
COc1ccc([C@H]2N[C@]3(CCCN(Cc4ccccc4)C3=O)[C@H]3C(=O)N(Cc4ccccc4)C(=O)[C@@H]23)cc1 | -27.0% | -20.7%
COc1ccc(C)cc1NC(=O)Nc1cccc(OCc2cc(=O)n3ccc(C)cc3n2)c1 | -15.2% | -7.6%
CC(C)NC(=O)Nc1cccc2c1O[C@@H](CN(C)S(=O)(=O)c1ccc(F)cc1)[C@@H](C)CN([C@H](C)CO)C2=O | i | -17.4%
Cn1c(=O)c(=O)n(C)c2cc(S(=O)(=O)CCC(=O)N3CCCCC3)ccc21 | i | 6.6%
COC(=O)c1c(NC(=O)c2ccco2)sc(C)c1C | -21.6% | -14.1%
COc1ccc(-c2csc(C(C)(NC(C)=O)c3ccccc3)n2)cn1 (stereo not given) | i | 4.1%

# This is a random part of the collection; 0.87% or so of the library scored in one or more.
